GALR2 ag: agonists of human galanin receptor 2 (GALR2); O43603; GALR2-expressing cells, agonist activation read-out; activation, %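 (tested at 5 µM)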; 0.48% of 140,000 active; AID 803;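 active = above mean plus 3 SD of all compounds, about 5% in these data, not always enough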;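 also: 0% = vehicle buffer wells and 100% = reference agonist at full effect; tested in CHO reporter cells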
Target sequence (O43603 whole entry, looked up): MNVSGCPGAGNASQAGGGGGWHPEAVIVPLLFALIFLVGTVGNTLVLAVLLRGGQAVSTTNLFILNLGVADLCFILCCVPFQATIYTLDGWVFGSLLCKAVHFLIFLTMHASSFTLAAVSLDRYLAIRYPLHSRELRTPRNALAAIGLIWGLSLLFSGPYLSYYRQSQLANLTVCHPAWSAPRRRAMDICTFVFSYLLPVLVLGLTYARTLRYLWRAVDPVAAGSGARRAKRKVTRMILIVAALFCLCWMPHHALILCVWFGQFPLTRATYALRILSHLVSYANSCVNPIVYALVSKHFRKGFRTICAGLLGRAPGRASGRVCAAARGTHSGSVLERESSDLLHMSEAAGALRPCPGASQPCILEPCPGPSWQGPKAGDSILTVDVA
INS promoter inh: TRM-6 insulin promoter activity inhibition | TRM-6 cells (human fetal islet line), insulin promoter-eGFP reporter, imaging; reporter expression induced with tamoxifen | inhibition, % at 2 µM | 0.9% of 130,000 active;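 active = inhibition above the mean plus 3 SD, with well images judged a real hit on visual review, cut at about 60% in these data, passing the limit was not always enough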
HSV replic up: HSV replication enhancement | maximum fold increase | HSV replication augmentation in cells, fold increase | 0.005% of 220,000 active;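 active = peak rise of 1.5-fold or more in the series; tested in PC3 cells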;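 also: first round at 10 µM; read as green reporter fluorescence; hits show the peak of a series up to 25 µM; 1 = signal of infected wells without compound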
RGS16-Gao: RGS16-Galphao interaction regulator (human); O15492+P09471; bead-based flow cytometry RGS16-Galphao binding, fluorescence; actives lie on both sides; binding response (% of control), % at 10 µM; 0.38% of 220,000 active;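 active = below 25% or above 175%, edge rows of some plates excepted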;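 also: Galphao activated by GDP with aluminum fluoride before binding; 100% = wells without compound and 0% = beads without RGS; some results beyond the cut were filed as inactive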
Target sequence (O15492 whole entry, looked up): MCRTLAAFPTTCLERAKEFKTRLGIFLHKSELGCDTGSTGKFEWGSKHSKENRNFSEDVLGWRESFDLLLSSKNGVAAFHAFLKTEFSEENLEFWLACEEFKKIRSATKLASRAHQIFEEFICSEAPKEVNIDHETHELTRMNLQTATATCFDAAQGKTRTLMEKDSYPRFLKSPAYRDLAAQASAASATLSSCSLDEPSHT
Target sequence (P09471 whole entry, looked up): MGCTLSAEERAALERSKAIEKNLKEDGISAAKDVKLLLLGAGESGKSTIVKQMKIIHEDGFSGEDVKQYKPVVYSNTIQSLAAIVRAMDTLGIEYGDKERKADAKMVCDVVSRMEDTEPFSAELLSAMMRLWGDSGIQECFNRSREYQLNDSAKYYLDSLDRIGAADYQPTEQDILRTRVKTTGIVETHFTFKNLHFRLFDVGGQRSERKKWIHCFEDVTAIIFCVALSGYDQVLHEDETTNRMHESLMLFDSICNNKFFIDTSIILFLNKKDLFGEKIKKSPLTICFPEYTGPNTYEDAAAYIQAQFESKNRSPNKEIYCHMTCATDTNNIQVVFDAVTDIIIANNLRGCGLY
PKD1 kinase inh: inhibitors of human PKD1 kinase | PKD1 kinase fluorescence polarization assay | Q15139 | 0.056% of 200,000 active | AID 797 | inhibition, %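 (about 10 µM by stock and volumes)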;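 active = inhibition of 50% or more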;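 also: controls were vehicle for no effect and a reference inhibitor for full effect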
INS promoter inh cell count: also measured in INS promoter inh; calls as there; normalized cell count, %; measured here: cell count, toxicity; reference of the scale not given here;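 cells exposed to compound for 48 h; stained nuclei by imaging scaled within each plate; lower means fewer cells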
HSV replic up primary fold: further read-out of HSV replic up, marked with its call; fold increase; compound at 10 µM; measured here: primary screen fold increase 10 uM; tested in PC3 cells;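 GFP signal in the first replicate; 1 = infected wells without compound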
Active calls of the source: *; i = inactive; x = not tested or not shown.

Short forms: A = GALR2 ag; B = INS promoter inh; C = INS promoter inh cell count; D = HSV replic up; E = HSV replic up primary fold; F = RGS16-Gao; G = PKD1 kinase inh
> O=C(O)c1cccc(NS(=O)(=O)c2ccc3c(c2)C(=O)c2ccccc2C3=O)c1
  A = x	B = x	C = x	D = i	E = 0.87	F = 107	G = x
> COc1ccc(S(=O)(=O)NN(C)C)cc1N(C)S(=O)(=O)c1ccc(Cl)cc1
  A = -1.9	B = x	C = x	D = i	E = 1.1	F = 55	G = 1
> Cc1ccc(C(=O)Nc2ccc3nccnc3c2)cc1
  A = -0.3	B = 13	C = 63	D = i	E = 0.88	F = 104	G = 1
> O=C(Cc1ccc(F)cc1)Nc1nnc(SCC(=O)N2CCCCC2)s1
  A = x	B = 26	C = 102	D = i	E = 0.95	F = 100	G = -2
> CCOC(=O)C1(Cc2cccc(OC)c2)CCN(Cc2ccc(OC)c(OC)c2)CC1
  A = x	B = x	C = x	D = i	E = 0.97	F = 114	G = 0
> OC(CNCC1CCCO1)COc1ccc(OCC(O)CNCC2CCCO2)cc1 (centres undefined)
  A = 0.3	B = 22	C = 91	D = i	E = 0.81	F = 105	G = -7
> Cc1ccc(C2c3c(oc4cc(C)c(C)cc4c3=O)C(=O)N2CCCN2CCOCC2)cc1 (centres undefined)
  A = -0.7	B = x	C = x	D = i	E = 0.92	F = x	G = -7
> NC(=O)c1sc2nc3c(c(-c4cccs4)c2c1N)CCCCC3
  A = 0.0	B = 34	C = 158	D = i	E = 0.71	F = 109	G = -5
> Cc1ccc(N2C(=O)[C@@H]3[C@H](C2=O)[C@H]2C=CC=NN2[C@@H]3C(=O)Nc2ccccc2)cc1
  A = x	B = x	C = x	D = i	E = 1.2	F = 103	G = x
> O=C(NCc1cccnc1)C1CCN(S(=O)(=O)c2cccnc2)CC1
  A = -1.1	B = -50	C = 94	D = i	E = 0.87	F = 101	G = -2

Full records, quoted from the list:
`CCOC(=O)C1(Cc2cccc(OC)c2)CCN(Cc2ccc(OC)c(OC)c2)CC1` across the screens: GALR2 ag = x; INS promoter inh = x; INS promoter inh cell count = x; HSV replic up = i; HSV replic up primary fold = 0.97; RGS16-Gao = 114; PKD1 kinase inh = 0
`COc1ccc(S(=O)(=O)NN(C)C)cc1N(C)S(=O)(=O)c1ccc(Cl)cc1` across the screens: GALR2 ag = -1.9; INS promoter inh = x; INS promoter inh cell count = x; HSV replic up = i; HSV replic up primary fold = 1.1; RGS16-Gao = 55; PKD1 kinase inh = 1
`OC(CNCC1CCCO1)COc1ccc(OCC(O)CNCC2CCCO2)cc1` (centres undefined) across the screens: GALR2 ag = 0.3; INS promoter inh = 22; INS promoter inh cell count = 91; HSV replic up = i; HSV replic up primary fold = 0.81; RGS16-Gao = 105; PKD1 kinase inh = -7

Remaining list, next part.
Short forms: A = GALR2 ag; B = INS promoter inh; C = INS promoter inh cell count; D = HSV replic up; E = HSV replic up primary fold; F = RGS16-Gao; G = PKD1 kinase inh
> CCOC(=O)c1sc(NS(=O)(=O)c2ccc(C)cc2)nc1C
  A = -1.3	B = 3	C = 107	D = i	E = 0.9	F = 102	G = 8
> CCOc1ccc(OCC)c(NC(=O)CN2CCC(NC(=O)c3cccc(F)c3)CC2)c1
  A = -0.7	B = -7	C = 112	D = i	E = 0.75	F = 100	G = -15
> O=C(CSc1nnc(Cc2ccccc2)o1)N1CCCc2ccccc21
  A = -0.9	B = 26	C = 109	D = i	E = 0.9	F = x	G = 1
> Cc1ccc(-n2c3c(cc(C(=O)NC4CCSC4=O)c2=O)C(=O)CC(C)(C)C3)cc1 (centres undefined)
  A = -1.2	B = 11	C = 88	D = i	E = 1	F = 95	G = -5
> CCOc1cccc(N(C(=O)Cc2cccs2)C(C(=O)NC2CCCCC2)c2cccn2C)c1 (centres undefined)
  A = -1.4	B = -133	C = 100	D = i	E = 0.99	F = 109	G = 1
> CCOC(=O)c1cc(/C(C)=N/OC(=O)c2ccc(Cl)cc2)on1
  A = x	B = x	C = x	D = i	E = 0.98	F = 99	G = x
> CCOC(=O)c1[nH]c2ccc(Br)cc2c1NC(=O)CCN1CCCCC1
  A = -1.8	B = x	C = x	D = i	E = 0.9	F = 99	G = -5
> CC(=O)OCC1=C(C(=O)O)N2C(=O)C(NC(=O)c3ccc(COc4ccc(Cl)cc4)o3)C2SC1 (centres undefined)
  A = x	B = x	C = x	D = i	E = 1.1	F = 104	G = -1
> O=C(Cc1ccc(Cl)cc1)NCCS(=O)c1ccc(Cl)cc1 (centres undefined)
  A = -2.4	B = 10	C = 88	D = i	E = 0.93	F = 100	G = -1
> CN(C)CCC(c1ccccc1)c1ccccn1 (centres undefined)
  A = 0.1	B = -19	C = 94	D = i	E = 0.99	F = 93	G = -7
> O=C(O)c1cc(-c2ccccn2)n[nH]1
  A = -1.6	B = 57	C = 70	D = i	E = 0.92	F = 102	G = -2
> COc1ccc(OC)c(NC(=O)CSc2nnc3ccc(-c4ccncc4)nn23)c1
  A = x	B = -178	C = 69	D = i	E = 0.93	F = 99	G = -8
> C=CCn1c(N2CCCCCC2)nc2c1c(=O)n(C)c(=O)n2C
  A = -0.9	B = 14	C = 166	D = i	E = 1	F = 100	G = 4
> O=C(OCC(O)COC(=O)c1cccnc1)c1cccnc1
  A = x	B = x	C = x	D = i	E = 1.3	F = 100	G = x
> CN1CCN(C(=O)c2cc3c(C(F)(F)F)nn(C)c3s2)CC1
  A = -1.4	B = 57	C = 142	D = i	E = 1	F = 93	G = 0
> Cc1nc(SCC(N)=O)c([N+](=O)[O-])[nH]1
  A = x	B = -23	C = 102	D = i	E = 0.95	F = 96	G = -2
> COC(=O)c1ccc(CNC(=O)COC(=O)COc2ccc(OC)cc2)cc1
  A = x	B = -67	C = 148	D = i	E = 1	F = 102	G = -6
> O=[N+]([O-])c1cc(/C=N/O)ccc1SCc1ccccc1Cl
  A = -1.9	B = 14	C = 114	D = i	E = 0.86	F = 46	G = -6
> O=C(CSC1CS(=O)(=O)c2cc([N+](=O)[O-])ccc21)NNC(=O)c1ccccc1 (centres undefined)
  A = x	B = x	C = x	D = i	E = 0.98	F = 97	G = x
> O=[N+]([O-])c1ccccc1S(=O)(=O)NCc1ccco1
  A = x	B = -35	C = 144	D = i	E = 1.1	F = 100	G = 0

Ordered by SMILES length (lowest first): part of the list above
Short forms: A = GALR2 ag; B = INS promoter inh; C = INS promoter inh cell count; D = HSV replic up; E = HSV replic up primary fold; F = RGS16-Gao; G = PKD1 kinase inh
> O=[N+]([O-])c1ccccc1S(=O)(=O)NCc1ccco1
  A = x	B = -35	C = 144	D = i	E = 1.1	F = 100	G = 0
> C=CCn1c(N2CCCCCC2)nc2c1c(=O)n(C)c(=O)n2C
  A = -0.9	B = 14	C = 166	D = i	E = 1	F = 100	G = 4
> O=C(CSC1CS(=O)(=O)c2cc([N+](=O)[O-])ccc21)NNC(=O)c1ccccc1 (centres undefined)
  A = x	B = x	C = x	D = i	E = 0.98	F = 97	G = x

(listing goes on)
Values in the order: GALR2 ag, INS promoter inh, INS promoter inh cell count, HSV replic up, HSV replic up primary fold, RGS16-Gao, PKD1 kinase inh
Cc1ccc(NC(=S)NNC(=O)CCn2cc(C)cn2)cc1
  -1.5, x, x, i, 0.88, 98, -10
CN(C)c1ccc(C2OC(=O)C3(CCCC3)C(=O)C2(C)C)cc1 (centres undefined)
  -2.4, -8, 121, i, 1.2, 106, 1
Cc1cc(C)nc(SCc2nc3nc(C)cc(C)n3c2Br)n1
  1.2, 10, 83, i, 1.3, 91, -8
CS(=O)(=O)N1CCc2cc(C(=O)O)ccc21
  -2.7, -44, 113, i, 0.91, 99, 0
O=C(Nc1ccc2c(c1)OCO2)C1CCN(S(=O)(=O)c2cccs2)CC1
  -1.4, -5, 60, i, 1.2, 97, -6
OCCNCCCCOc1ccc(F)cc1
  -1.7, -5, 88, i, 1, 100, -6
COc1ccc(N=C(C)C2=C(O)c3ccccc3C2=O)cc1
  -1.0, 16, 122, i, 0.96, 94, -10
O=C(C[n+]1ccn(CCCNP2(=O)C=C(c3ccccc3)OC(c3ccccc3)=C2)c1)c1cccs1
  x, x, x, i, 0.93, 95, -5
N#CC1=C2SCN(Cc3ccco3)CN2C(=O)CC1c1c(F)cccc1Cl (centres undefined)
  -1.3, x, x, i, 0.95, 81, -6
O=C(CCSCCc1ccccn1)Nc1c(F)cc(F)cc1Br
  0.2, -79, 133, i, 0.85, 96, -1
CC(C)(C)NC(=O)C(Cc1ccccc1)NS(=O)(=O)c1ccc2c(c1)CCC(=O)N2 (centres undefined)
  -0.1, -92, 75, i, 0.92, 98, 15
O=C(Nc1ccc(Cl)cn1)c1cc2c(s1)-c1ccccc1OC2
  x, x, x, i, 0.97, 104, x
CC1=CS/C(=C(/C#N)C(=O)N2CCCCC2)N1c1ccccc1
  -2.1, x, x, i, 0.96, 99, 6
C#CCNC(=O)C1=C[C@H](c2ccc3c(c2)OCO3)[C@@H](CCCO)[C@H](OCC)O1
  x, x, x, i, 0.71, 102, 3
COc1ccc(/C(O)=C2/C(=O)C(=O)N(CCN(C)C)C2c2ccc(C)cc2)cc1Cl (centres undefined)
  -1.3, -40, 124, i, 0.89, 103, -24
O=C(NC1(C(F)(F)F)C(=O)Nc2c1c(=O)[nH]c(=O)n2-c1ccccc1)c1ccncc1 (centres undefined)
  -1.8, -19, 112, i, 0.84, x, 1
O=C(Cn1cc(C(=O)COc2ccccc2)c2ccccc21)NCc1ccco1
  -1.1, -39, 121, i, 0.89, 103, 2
COc1ccc(NC(=S)NN2C(C)CCCC2C)cc1 (centres undefined)
  -0.3, 3, 96, i, 1, 99, -2
CCCCCCN(C(=O)CCCCCN1C(=O)NC(c2ccc(-c3ccccc3)cc2)C(C(=O)OCc2ccccc2)=C1C)C(C)C(=O)NCCCC (centres undefined)
  -3.7, 0, 47, x, x, 107, -3
Cc1nc2ccccc2c(=O)n1CCCN1CCOCC1
  x, x, x, i, 0.93, 105, x
CC(C)CC(=O)NC(NC(=S)Nc1cccc2cccnc12)C(Cl)(Cl)Cl (centres undefined)
  0.4, 5, 125, i, 0.96, 113, -1
C=CCNC(=O)c1onc(CSc2cc(C)ccc2C)c1C(=O)O
  -3.7, 46, 19, i, 1, 109, -10
CCOc1ccccc1N(C(=O)CNC(=O)c1ccco1)C(C(=O)NC1CCCC1)c1cccnc1 (centres undefined)
  -0.6, x, x, i, 1, 101, 5
CC(=O)Nc1ccc(NC(=O)COC(=O)c2ccco2)cc1
  x, -29, 19, x, x, 113, 7
CCc1ccc(CCC(=O)Nc2ccc(C(C)=O)cc2)o1
  -2.7, -200, 63, i, 0.98, x, -2
CN(C)c1ccc(C(=O)NNC(=O)Nc2ccccc2)cc1
  x, x, x, i, 0.89, 100, -1
N=c1sccn1CC(=O)NC(c1ccccc1)c1ccccc1
  x, x, x, i, 0.84, 103, -4
O=[N+]([O-])c1cccc(/C=N/n2cnnc2)c1O
  -0.3, 13, 106, i, 0.98, 92, -4
CN(C)CCNc1nc(-c2ccco2)c2c(c1C#N)CC(C)(C)OC2
  1.1, 6, 153, i, 0.82, 78, -4
Cc1c(NCc2cc(Cl)cc(Cl)c2O)c(=O)n(-c2ccccc2)n1C
  -1.2, -14, 103, i, 1.1, 104, -1
O=[N+]([O-])c1ccc(OC/C=C2\Oc3ccc([N+](=O)[O-])cc3C2N2CCOCC2)cc1 (centres undefined)
  -2.5, 13, 106, i, 0.89, 98, -2
COc1ccc(C(C(=O)NC2CCCC2)N2CCc3ccccc32)cc1 (centres undefined)
  -1.3, 57, 38, i, 1.1, 106, -4
CCCCNS(=O)(=O)c1ccc2nc(SCC(N)=O)[nH]c2c1
  x, x, x, i, 1.2, 97, x
COc1cc(/C=N/NC(=O)c2ccc(CSc3nc4ccccc4[nH]3)cc2)ccc1O
  x, x, x, i, 0.91, 101, -8
O=C(CSc1cn(Cc2cccc(F)c2)c2ccccc12)NCc1ccc(F)cc1
  0.8, -33, 122, i, 0.77, x, -12
C/C(=N\NC(=O)c1ccc(=O)[nH]n1)c1cccnc1
  -1.6, 15, 120, i, 1.1, 104, -9
COc1ccccc1Oc1ccc(S(=O)(=O)N2CCCC2)cc1
  -3.6, 38, 132, i, 1.2, 101, -4
CCOP(=O)(OCC)c1nc(-c2ccc(Cl)cc2Cl)oc1N1CCCCC1
  x, x, x, i, 0.95, 104, -6

Screening results as filed in PubChem BioAssay.
